Bioassay records: PubChem, National Center for Advancing Translational Sciences (NCATS)
Rango-impB inh = qHTS Assay for Inhibitors of Rango (Ran-regulated importin-beta cargo) - Importin beta complex formation | Importin subunit beta-1 (Homo sapiens), Q14974 | Rango CFP/YFP FRET sensor + importin beta, 45 min | Potency, µM (titrated, usually from 92.2 µM), inactives show top-dose inhibition of complex formation | 0.031% of 340,000 active; active = rising FRET ratio curve, often small or poorly fitted; inconclusive = mostly compound fluorescence or quenching in the first reads; inactive = flat curves in all reads;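 further: potency means the concentration at half of the fitted maximal effect; 0% = DMSO wells and 100% = buffer wells lacking importin beta; nearly all actives have a fitted effect of over 15% in size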
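FRET biosensor (snurportin 1 IBB flanked by EYFP and cerulean), 50 nM, with compound 5 min, then 0.125 microM importin beta in PBS, 1 mM DTT, 0.02% Tween-20, 0.1% BSA. CFP/YFP ratio read after 45 min at room temperature; pre-read flags interference.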
miR-21 FLuc = qHTS Assay for Modulators of miRNAs and/orActivators of miR-21; HeLa miR-21 FLuc reporter, luciferase, 48 h; Potency, µM (highest dose often 38.3 µM), without a hit: top-dose reporter change, positive = more light; 340,000 tested, under 10 active; active = well fitted rising curve with a large enough effect; inconclusive = small, poorly fitted or top-dose-only effect; inactive = no such curve, though single readings can be large or run the other way;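 further: % of control where 0% means no effect; miR-21 action dims this reporter so a rising signal means less miR-21 action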
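Using DMEM plus 10% FBS, HeLa miR-21-FLuc cells are incubated with test compounds (final up to about 40uM) for 48 hours; firefly luciferase signal is then imaged following reagent-mediated lysis.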
Rango release inh = qHTS Assay for Inhibitors of RanGTP induced Rango (Ran-regulated importin-beta cargo) - Importin beta complex dissociation | Snurportin-1 (Homo sapiens) + GTP-binding nuclear protein Ran (Homo sapiens) + Importin … | Biochemical FRET Rango-importin beta, RanGTP-induced dissociation | Potency, µM (series often up to 46.1 µM), without a hit: top-dose activity change, negative = inhibition | 0.071% of 340,000 active; active means falling FRET ratio curve, often poorly fitted, with flat reads before Ran was added; inconclusive means other falling curves, or compound fluorescence or quenching; inactive means flat or rising ratio curve;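 further: potency means the concentration at half of the fitted maximal effect; % of control where 0% means no effect; nearly all actives have a fitted effect of over 45% in size; -100% = wells without RanGTP and RCC1; the record marks most hits as doubtful in a second field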
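Rango (0.1 uM)–importin beta (0.25 uM) complex; RanGTP-RCC1 trigger; 45 min RT; CFP/YFP FRET read.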
GLA inh pH 4.5 = qHTS Assay for Inhibitors of Human alpha-Galactosidase at pH 4.5; purified enzyme, 4-MU-alpha-Gal fluorescence, pH 4.5; activity change, negative = inhibition, % at 105 µM; 230,000 tested, under 10 active; inconclusive = small, poorly fitted or top-dose-only inhibition, or a rising curve; inactive = flat fitted curve, though single readings scatter; no compound was filed as active;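 further: 0% = full activity with enzyme and -100% = basal without enzyme; dose as in the result columns while the protocol names 77 µM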
Target sequence (P06280 whole entry, looked up): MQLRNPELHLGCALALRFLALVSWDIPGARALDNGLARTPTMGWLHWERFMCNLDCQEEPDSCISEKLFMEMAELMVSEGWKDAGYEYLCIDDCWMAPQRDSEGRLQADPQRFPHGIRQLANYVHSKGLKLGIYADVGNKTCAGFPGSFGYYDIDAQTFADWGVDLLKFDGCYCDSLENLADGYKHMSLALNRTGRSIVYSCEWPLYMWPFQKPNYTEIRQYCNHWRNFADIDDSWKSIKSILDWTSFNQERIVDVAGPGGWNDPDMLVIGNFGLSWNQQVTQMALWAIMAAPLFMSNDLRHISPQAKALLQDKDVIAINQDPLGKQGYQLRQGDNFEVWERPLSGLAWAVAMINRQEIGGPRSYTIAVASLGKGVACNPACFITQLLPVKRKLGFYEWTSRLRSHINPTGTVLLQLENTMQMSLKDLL
An asterisk follows results filed as active; ? = inconclusive; nt = no result given; & = joins results of further samples. Some of the compounds tested (hit frequency here may not be typical).

SMILES | Rango-impB inh | miR-21 FLuc | Rango release inh | GLA inh pH 4.5
CC(=O)c1c(C)n(-c2ccc(Cl)cc2)c2ccc(O)cc12 | ? | 10% | 13% | nt
CCNC(=S)Nc1ccc(OCC)cc1 | 0.4% | -13% | -10% | -5
O=C(NCCN1CCN(C(=O)c2ccc(F)cc2)CC1)C(=O)NCc1ccccc1 | -0.1% | 0% | 2% | nt
COc1cccc(-n2nnc3c(=O)n(Cc4ccc(C)cc4)cnc32)c1 | -1.8% | -9% | -10% | -4
CCCc1nc2c(nnn2Cc2ccccc2F)c(=O)[nH]1 | 0.2% | -4% | 0% | -1
COc1ccc(NC(=O)NCc2cccnc2)cc1 | -0.2% | -7% | 3% | nt
CC1=Nc2cc([N+](=O)[O-])ccc2NC(C)(C)C1 | 4.7% | -52% | 4% | -5
COc1cc2c(cc1OC)CN(C(=O)CN1CCN(S(=O)(=O)c3ccccc3)CC1)CC2 | 0.2% | 5% | -14% | nt
COc1c(S(=O)(=O)N2CCCCC2)ccc2c(S(=O)(=O)N3CCCCC3)cccc12 | 2.6% | nt | -10% | nt
CCOc1ccc(N2C(=O)C(c3ccccc3)=C(c3nc4ccccc4s3)C2NC(C)=O)cc1 (stereo unspecified) | 0.9% | -7% | -6% | -3
CCOC(=O)c1c(-c2ncc(C(F)(F)F)cc2Cl)noc1C | 1.4% | -3% | 0% | 1
Cn1c(C(=O)NCCCN2CCN(c3ccc(F)cc3)CC2)cc2c(=O)n(C)c3ccccc3c21 | 4.8% | nt | 1% | nt
COc1cccc(/C=C2\SC(=S)N(CCCC(=O)Nc3cc(C)on3)C2=O)c1 | 0.0% | 4% | 4% | nt
CCOC(CNc1c([N+](=O)[O-])c(=O)n(C)c(=O)n1C)OCC | -4.8% | -12% | -1% | -4
O=C(Nc1nc2ccccc2[nH]1)C1CCC1 | 0.5% | 0% | 0% | 0
COc1ccc(C(=O)N=C2SC3CS(=O)(=O)CC3N2Cc2ccc(OC)c(OC)c2)cc1 (stereo unspecified) | -1.9% | -4% | 8% | nt
C(=C1c2ccccc2-c2ccccc21)c1ccccn1 | -1.2% | nt | 9% | nt
C=CCNc1nc(Nc2ccc([N+](=O)[O-])cc2)nc(OCC)n1 | -1.2% | -4% | -3% | -4
CCOC(=O)C1=C(c2ccccc2)NC(=S)NC1c1ccc(Cl)cc1 (stereo unspecified) | -2.6% | 14% | 3% | -19
CCCS(=O)(=O)c1csc(C(=O)OC)c1N | 0.3% | 0% | 22% | 0
CCN(CC)Cc1nc2c(c(=O)[nH]1)C1(CCCC1)Cc1ccccc1-2 | ? | -4% | 13% | -5
CCn1c(COc2cccc(OC)c2)nnc1SCC(=O)NC1CCCC1 | -0.6% | -1% | -1% | nt
O=C(O)C1=C[C@H](c2coc3ccccc3c2=O)C[C@H](OCCCCO)O1 | 0.1% | -2% | -6% | 1
O=C(NNS(=O)(=O)c1ccc(F)cc1)c1cc(Cl)ccc1O | -1.4% | -2% | 1% | nt
Cc1ccc(S(=O)(=O)NC(=O)c2cc(C)n(-c3ccc(N(C)C)cc3)c2C)cc1 | 6.2% | -26% | 2% | -2
COc1ccc(CCNC(=O)CCc2cn(C)c3ccccc23)c(OC)c1OC | -0.1% | -8% | 7% | nt
COC(=O)Cn1c2nc3ccccc3nc2c2cccc(C)c21 | ? | -3% | ? | nt
Cc1ccc(C)c(OCCC(=O)OCC(=O)Nc2ccc(Cl)cn2)c1 | 1.2% | nt | -15% | nt
CC1=C(C(=O)Nc2ccccc2)C(c2ccco2)C(C#N)=C(SCC(=O)OC(C)C)N1 (stereo unspecified) | ? | 18% | -17% | -1
O=C(CSc1ccccc1C(=O)O)c1ccc([N+](=O)[O-])cc1 | -1.7% | -11% | -7% | -3
CC(C)(C)NC(=O)C1CCC(C)(C(=O)O)C1(C)C (stereo unspecified) | 4.0% | -6% | -3% | 5
COc1cccc(C(=O)NC(=S)Nc2ccccc2N2CCCCC2)c1 | -1.0% | -7% | 9% | nt
O=C(COC(=O)c1ccccc1[N+](=O)[O-])NNC(=O)c1cccs1 | 0.3% | 0% | -13% | nt
O=C(NCc1ccccc1)C12CN(Cc3ccccc3)CC1C(c1cccc([N+](=O)[O-])c1)=NO2 (stereo unspecified) | 0.0% | 2% | -20% | -6
CCOC(=O)c1c(NC(=O)c2noc3c2CCCC3)sc(C)c1C | nt | -6% | nt | 4
COc1ccc2nc(SCc3cccnc3)c(C#N)cc2c1 | -1.6% | -18% | -10% | -1

Rewritten tab-delimited: part of the list above
Structure	Rango-impB inh	miR-21 FLuc	Rango release inh	GLA inh pH 4.5
COC(=O)Cn1c2nc3ccccc3nc2c2cccc(C)c21	?	-3%	?	nt
Cc1ccc(C)c(OCCC(=O)OCC(=O)Nc2ccc(Cl)cn2)c1	1.2%	nt	-15%	nt
CC1=C(C(=O)Nc2ccccc2)C(c2ccco2)C(C#N)=C(SCC(=O)OC(C)C)N1 (stereo unspecified)	?	18%	-17%	-1

(continued)
SMILES | Rango-impB inh | miR-21 FLuc | Rango release inh | GLA inh pH 4.5
Cc1ccc(S(=O)(=O)NCC(=O)OCCOc2cccc(Cl)c2)cc1 | -3.8% | nt | 0% | nt
Cc1ccc(N(CC(=O)NCC2CCCO2)C(=O)CCC(=O)Nc2ccccn2)cc1C (stereo unspecified) | -0.4% | -14% | -6% | 1
NC(=O)c1sc2nc(-c3ccccc3)ccc2c1N | ? | -62% | ? | nt
Cc1ccc(-n2ccc(=O)c(C(=O)Nc3ccc(S(=O)(=O)N4CCOCC4)cc3)n2)cc1 | 1.1% | -1% | 4% | nt
CNC(=S)N(Cc1cc2ccc(OC)cc2[nH]c1=O)CC1CCCO1 (stereo unspecified) | -0.5% | 6% | -12% | 5
CC(=O)OC(C)(CCC(C)(OC(C)=O)C(C)=O)C(C)=O (stereo unspecified) | -0.4% | 2% | 3% | 1
Cc1sc2ncn(CC(=O)N3CCC(C(N)=O)CC3)c(=O)c2c1S(=O)(=O)N1CC(C)CC(C)C1 (stereo unspecified) | 1.5% | 4% | 13% | nt
CNC(=O)CN(c1cc(C)ccc1C)S(C)(=O)=O | -0.9% | 1% | -12% | -3
COc1ccc2c(c1OC)C(=O)N(c1cccc(NC(C)=O)c1)C2 | -0.3% | -41% | 7% | nt
Cc1cc([N+](=O)[O-])c(C)cc1-c1ccc(/C=N/NC(=O)Cn2nnnc2N)o1 | -1.7% | -5% | -9% | -5
Cc1nn(-c2ccccc2)c(C)c1C(=O)OCC(=O)N1c2ccccc2NC(=O)C1(C)C | 3.1% | 12% | -8% | 3
COc1cccc(OC)c1C(=O)NC(=S)Nc1cccc(NC(=O)c2ccco2)c1 | 0.1% | -2% | 0% | -4
CCc1ccc(N(CC(=O)NCc2ccc(OC)cc2)C(=O)CCC(=O)Nc2ccccn2)cc1 | 2.8% | 3% | -7% | nt
O=C(CC1NCCNC1=O)Nc1ccc([N+](=O)[O-])cc1 (stereo unspecified) | ? | -12% | 1% | 6
CC(NC(=O)c1ccccc1Cl)C(=O)N1CCN(Cc2ccc3c(c2)OCO3)CC1 (stereo unspecified) | -0.4% | nt | -6% | nt
COc1ccccc1CN1C(=O)CN(C2CCCC2)C(=O)C1c1ccc(F)cc1 (stereo unspecified) | 4.9% | -4% | -10% | 4
COc1ccc(C(=O)C2CCCN(C(=O)c3cc(C(C)C)no3)C2)cc1F (stereo unspecified) | 0.0% | 0% | 23% | -2
CC1(C)OC(=O)C=C[C@]2(C)[C@H]3CC[C@@]4(C)[C@H](C(=O)O)OC(=O)[C@H]5O[C@]54[C@]3(C)C(=O)C[C@@H]12 | 0.6% | nt | 0% | nt
Cc1cc2ncn(CC(O)COC3CCCCC3)c2cc1C (stereo unspecified) | -2.5% | -5% | 5% | -4
O=[N+]([O-])/C=C/c1c(OCc2ccccc2)ccc2ccccc12 | nt | -15% | nt | -4
COc1ccc(N(C(=O)c2csnn2)C(C(=O)NC2CCCC2)c2cccs2)cc1 (stereo unspecified) | 0.5% | 0% | -6% | nt
O=C(CNC(=O)CNC(=O)c1ccc(Cl)cc1Cl)NCc1cccc(Cl)c1 | -0.4% | 8% | -12% | nt
C=CCNC(=O)CCNS(=O)(=O)c1ccc(Br)cc1 | -2.4% | -7% | 0% | -26
CC(C)(C)c1cc(CN2CCN(CCO)CC2)cc(C(C)(C)C)c1O | 0.0% | -4% | 6% | 2

Entries of single compounds, looked up by structure. Values in the order: Rango-impB inh | miR-21 FLuc | Rango release inh | GLA inh pH 4.5
Cc1cc2ncn(CC(O)COC3CCCCC3)c2cc1C (stereo unspecified) across the screens: -2.5% | -5% | 5% | -4
O=[N+]([O-])/C=C/c1c(OCc2ccccc2)ccc2ccccc12 across the screens: nt | -15% | nt | -4
O=C(CNC(=O)CNC(=O)c1ccc(Cl)cc1Cl)NCc1cccc(Cl)c1 across the screens: -0.4% | 8% | -12% | nt

Next section.
SMILES | Rango-impB inh | miR-21 FLuc | Rango release inh | GLA inh pH 4.5
CCOC(=O)CCn1c(CC(=O)OCC)nc2ccccc21 | 0.6% | -7% | 19% | -3
COc1ccccc1CN(Cc1cccnc1)S(=O)(=O)c1ccc(-n2cnnn2)c(OC)c1 | -3.6% | -3% | -10% | nt
CC(C)CCN1CCNC(=O)C1CC(=O)N(C)CCCN1CCOCC1 (stereo unspecified) | -1.6% | 1% | -4% | nt
COc1ccccc1CNC(=O)C1CCN(S(=O)(=O)c2ccc3c(c2)CC(C)N3C(=O)C2CC2)CC1 (stereo unspecified) | 0.7% | 2% | 2% | nt
CC(=O)N1CCN(Cc2nc3cc(NC(=O)COc4cccc(C)c4)ccc3n2C)CC1 | 0.9% | 11% | 15% | nt
Cc1ccc(S(=O)(=O)Nc2c(C)nc3nc(C)[nH]n3c2=O)cc1 | 0.9% | -1% | -17% | nt
CC(C)(C)N=C1C([N+](=O)[O-])=CC=C2C1=NC1(CCCCC1)N2O | 6.6% | 1% | 7% | -4
CCCCCCN(C(=O)CCCCCN1C(=O)NC(c2ccc(-c3ccccc3)cc2)C(C(=O)OCc2ccccc2)=C1C)C(C(=O)NCCCC)c1ccc(O)c(C(=O)OC)c1 (stereo unspecified) | nt | -4% | nt | -1&1
C=CCN1C(=O)c2ccc(C(=O)OCC(=O)N3CCN(c4ccccc4)CC3)cc2C1=O | -1.2% | nt | 9% | nt
O=C(/C=C/c1ccc(F)cc1)NCc1cccs1 | -4.0% | -43% | 4% | -6
Cn1cc([N+](=O)[O-])c(C(=O)N/N=C/c2ccc([N+](=O)[O-])cc2)n1 | 2.7% | -7% | 11% | -4
O=C1CC(N2CCN(S(=O)(=O)c3ccccc3F)CC2)C(=O)N1c1ccc(F)cc1F (stereo unspecified) | -1.0% | nt | -1% | nt
Cc1cc(C)c(C#N)c(SCCS(=O)(=O)Cc2ccccc2)n1 | -0.6% | -8% | -7% | -4
O=C(CCNC(=O)c1ccc(Cl)cc1)NCC(c1ccco1)N1CCCCC1 (stereo unspecified) | 1.4% | nt | -7% | nt
O=C(CNC(=O)C12CC3CC(CC(C3)C1)C2)NC1=NCCS1 | 3.0% | -7% | -2% | -8
O=[N+]([O-])c1cc([N+](=O)[O-])c(Oc2c(F)cccc2F)cc1NN1CCCCC1 | 4.4% | 0% | -14% | nt
COc1ccc(C(=O)Nc2nnc(SCC(=O)NCc3ccco3)s2)cc1OC | -4.3% | -2% | 1% | nt
OC1c2cc(Br)ccc2N=C2CCCN21 (stereo unspecified) | -0.7% | ? | -10% | nt
Cc1cc(C)c2cc(C=O)c(Cl)nc2c1 | 4.8% | 28% | 7% | 4
CN1CCN(C(=O)c2ccccc2NC(=O)C(C)(C)C)CC1 | 2.0% | -1% | 11% | 1
O=C(CCN1C(=O)[C@@H]2Cc3ccccc3CN2C1=O)N[C@H](C(=O)O)c1ccccc1 | -3.1% | 0% | 7% | nt
Cn1nnnc1SCC(=O)N1CCN(Cc2ccccc2)CC1 | -4.8% | -4% | -2% | -1
COc1ccc(OC)c(CN2CCN(Cc3cccc4ccccc34)CC2)c1 | -1.8% | -1% | 7% | -17
